Vaccinia Venus: vaccinia inhibition (Venus reporter); AID 720580; Potency, µM (highest dose often 36.5 µM), inactives show top-dose activity change, negative = inhibition, hits mostly inhibitors; Vaccinia virus Venus reporter expression, fluorescence; actives 0.46% (n = 330,000); active means well fitted inhibition curve with a large enough effect; inconclusive means small, poorly fitted or top-dose-only effect; inactive means no such curve, though single readings can be large or run the other way; tested in A549 cells; also: nearly all actives have a fitted effect of over 30% in size; inactives centre near -10
VACV mCherry inh: inhibitors of vaccinia virus infection (mCherry reporter signal); AID 720579; Vaccinia virus mCherry reporter infection, fluorescence; about a quarter of the inactives have no number; actives 0.63% (n = 310,000); Potency, µM (titrated, usually from 36.5 µM), inactives show top-dose activity change, negative = inhibition, usual class: inhibitors; active = well fitted inhibition curve with a large enough effect; inconclusive = small, poorly fitted or top-dose-only effect; inactive = no such curve, though single readings can be large or run the other way; tested in A549 cells; also: nearly all actives have a fitted effect of over 35% in size; inactives centre near -10
The depositor's hits bear a star; i = inactive; ? = inconclusive; nt = no result given; [ ] = dose if it differs, or a comment. % is scaled to controls: 0 for no effect and ±100 for the full control effect; potency is read from the fitted curve at half-maximal effect.

molecule | Vaccinia Venus | VACV mCherry inh
CC1=C(C(=O)Nc2cccc(C)c2C)C(c2cccs2)NC(=S)N1 (centres undefined) | -12% | i
Cc1cc(C)n(-c2nc(C)nc3c2cnn3-c2ccccc2)n1 | -8% | -11%
O=C(CSc1n[nH]c(-c2ccco2)n1)Nc1ccccc1 | -4% | i
CC(C)(C)NC(=O)C(c1cc2ccccc2o1)n1c(=O)c(-c2cc3ccccc3[nH]2)nc2ccccc21 (centres undefined) | -28% | ?
Fc1cccc(Cl)c1CSc1ccc(-c2ccco2)nn1 | -14% | -14%
CSc1ccc(CCNC(=O)CCn2c(=O)c3cccn3c3cccnc32)cc1 | -14% | -11%
CC(C)(C)C1=NN(C(=O)c2ccccc2)C(O)(C(C)(C)C)C1 (centres undefined) | 13% | nt
CCOc1ccc(NC(=O)CSc2oc(-c3ccco3)nc2S(=O)(=O)c2ccccc2)cc1 | -14% | -10%
O=[N+]([O-])c1cccc2[nH]cnc12 | -17% | -15%
CCOC(=O)C[N+]1(C)CCN(C(C)=O)CC1 | -1% | i
COCCn1c(SCC(=O)N2CCc3ccccc32)nc2c(c1=O)SC(C)C2 (centres undefined) | -6% | i
Cc1ccccc1OCC(=O)N/N=C/c1ccncc1 | -4% | i
O=C(NCC(c1ccc2c(c1)OCO2)N1CCOCC1)c1ccccc1 (centres undefined) | 5% | -7%
Cc1cc(NC(=O)c2cc(Cl)ccc2Cl)no1 | -7% | ?
Cc1ccc(C)c(N2CCN(C(=O)c3ccc(N4CCCC4=O)cc3)CC2)c1 | -19% | ?
Cc1ccccc1C1NC(=S)NC2=C1C(=O)CCC2 (centres undefined) | 0% | -2%
c1ccc2c(c1)OCC(CNCC1COc3ccccc3O1)O2 (centres undefined) | -6% | -11%
Cc1ccc(CC2C(=O)N(c3ncccn3)C(=O)C2C)cc1 (centres undefined) | -12% | i
Cc1ccc2c(c1)C(C)(c1ccccc1)CC(C)(C)N2C(=O)c1ccc(F)cc1 (centres undefined) | -14% | -11%
O=C(O)c1cnn2c(C(F)F)cc(C3CC3)nc12 | -8% | -15%
c1ccc2c3c([nH]c2c1)CCCC3 | -10% | 43%[activator]
CSc1ccc(CNc2ncc(-c3ccccc3)n2C)cc1 | -14% | -16%
Cc1cc(C)n(C(=O)CNC(=O)c2ccc(Cl)cc2Cl)n1 | 0% | -1%
COc1cc2c(OC)cccc2cc1C(=O)O | -9% | -16%
CCOC(=O)C1CCCN(Cc2nc(C3CC3)no2)C1 (centres undefined) | -2% | 0%
Cc1ccccc1S(=O)(=O)NC(=O)C1(C)CCN1C(=O)Cc1cc(F)ccc1F (centres undefined) | 8% | 20%
O=C(NCc1ccccc1)C1CCCN(c2nc3ccsc3c(=O)s2)C1 (centres undefined) | 13% | i
CC1CN(c2ccc([N+](=O)[O-])nc2)CC(C)O1 (centres undefined) | 3% | 1%
CC(=NNC(N)=O)C1=C(O)C(C(C)C)NC1=O (centres undefined) | -9% | -10%
CC(C(=O)Nc1ccccc1C(F)(F)F)n1nnc2sc3c(c2c1=O)CCCC3 (centres undefined) | -3% | 9%
Cc1ccc2c(CC(=O)Nc3ccc(S(=O)(=O)N4CCCC(C)C4)cc3)coc2c1 (centres undefined) | -19% | -1%
C=CCN(C(=O)c1csnn1)C(C(=O)NCc1ccc(F)cc1)c1ccccc1F (centres undefined) | 12% | -11%
COCCNC(=S)NNc1ccccc1[N+](=O)[O-] | -12% | -22%
CC(=O)Nc1ccc(S(=O)(=O)NNC(=O)COc2cccc(C)c2)cc1 | -17% | nt
COc1cc(OC)cc(C(=O)OCC(=O)Nc2ccc(N3CCCCC3)cc2)c1 | -11% | -16%
O=C(NCCC1=CCCCC1)c1ccc2c(c1)N(Cc1ccccc1)C(=O)c1ccccc1S2(=O)=O | -19% | i
NC(=O)C1CCN(C(=O)CSCc2ccccc2Cl)CC1 | -15% | -7%
COc1cc(F)ccc1-c1csc(C(C)(O)c2ccccc2)n1 (centres undefined) | 3% | 11%
O=c1[nH]ncn2cccc12 | ? | nt
COc1ccccc1C(=O)Nc1ccc(S(=O)(=O)Nc2ncccn2)cc1 | -4% | 5%

Profiles, quoted from the list. Screens in order: Vaccinia Venus	VACV mCherry inh
`CC(=O)Nc1ccc(S(=O)(=O)NNC(=O)COc2cccc(C)c2)cc1` is entered as -17%	nt
`NC(=O)C1CCN(C(=O)CSCc2ccccc2Cl)CC1` is entered as -15%	-7%
`COc1cc(F)ccc1-c1csc(C(C)(O)c2ccccc2)n1` (centres undefined) is entered as 3%	11%
`COCCNC(=S)NNc1ccccc1[N+](=O)[O-]` is entered as -12%	-22%
`O=C(NCCC1=CCCCC1)c1ccc2c(c1)N(Cc1ccccc1)C(=O)c1ccccc1S2(=O)=O` is entered as -19%	i

Continued.
molecule | Vaccinia Venus | VACV mCherry inh
CN(C)c1ccc(C2SCCN2C(=O)c2ccc([N+](=O)[O-])cc2)cc1 (centres undefined) | -11% | -12%
Cc1ccc(N=Nc2c(O)[nH]c(=O)[nH]c2=O)c([N+](=O)[O-])c1 | -7% | -8%
CCOC(=O)c1cc(S(=O)(=O)Nc2cc(F)ccc2C)[nH]n1 | 2% | -2%
C/C(CC(=O)Nc1cc(C)ccn1)=N\NC(=O)c1ccc(C(C)(C)C)cc1 | 2% | -13%
CNCC(O)c1cccc(O)c1 (centres undefined) | ? | -9%
Cc1nc2c(C)cccc2c2c1CCN2c1ccccc1F | -1% | i
COc1cccc(N2CCN(c3ccc4nnc(CCC(=O)N5CCC(C)CC5)n4n3)CC2)c1 | -11% | ?
COc1ccc(NC(=O)N(Cc2ccco2)C2CCN(C(C)=O)CC2)c(OC)c1 | -16% | -13%
COc1cc(NC(=O)[C@H]2CSCN2C(=O)[C@@H]2CCC(=O)N2)cc(OC)c1OC | -10% | -16%
CCOC(=O)CN(C(=O)CNC(=O)c1ccco1)C(C(=O)NC1CCCCC1)c1cccc(OC)c1 (centres undefined) | -7% | -23%
CCCCC(=O)Nc1ccc(C(=O)Nc2ccc3c(c2)OCO3)cc1 | -3% | -2%
COCCN(C(=O)COC(=O)CCOc1ccccc1)c1c(N)n(Cc2ccccc2)c(=O)[nH]c1=O | -11% | -18%
COc1ccc([C@H]2CC(=O)C=C(c3ccc(Cl)c(C(F)(F)F)c3)C2)cc1 | -19% | -1%
N#CC1=C(SCC(=O)c2ccc(Cl)cc2)NC2=C(C(=O)CCC2)C1c1ccco1 (centres undefined) | ? | ?
O=C(CCS(=O)(=O)Cc1ccc(Cl)cc1)NCCc1ccccc1 | 4% | -1%
CCCCN(CCCC)C(=O)CCS(=O)(=O)c1ccc2c(c1)n(C)c(=O)c(=O)n2C | -25% | nt
CCc1ccc2occ(CC(=O)Nc3sc4c(c3C(=O)NCCOC)CCCC4)c2c1 | -6% | 1%
Cc1cccc(OCC(=O)Nc2ccc(C(=O)OCc3cc(=O)n4nc(C5CC5)sc4n3)cc2)c1 | -14% | i
CCO[C@H]1OC(C(N)=O)=C[C@@H](c2ccccc2)[C@@H]1CCCO | -3% | -12%
COc1c(C)cc(Br)cc1C(=O)Nc1ccc(C)cc1[N+](=O)[O-] | -9% | -7%
CCCCNC(=O)c1cc(Sc2ccc(OCC)cc2)nc2ccccc12 | -6% | -8%
O=C(O)Cn1c2c(c3ccccc31)CSc1ccc(Cl)cc1-2 | -1% | -16%
CC(CCc1ccccc1)NC(=O)CN(C)Cc1ccc(F)cc1 (centres undefined) | -5% | -11%
O=S1(=O)CC(N2CCCC2)CN1Cc1cn(Cc2cccc(Cl)c2)nn1 (centres undefined) | 1% | 18%
O=C(CCS(=O)(=O)c1ccc(Br)s1)NCc1cccs1 | 0% | ?
CN(C)CCCN1C(=O)C(O)=C(C(=O)c2cc3ccccc3o2)C1c1ccccc1 (centres undefined) | -10% | -4%
O=C(CCn1cccc1)NCc1ccc(Cl)cc1 | -6% | i
COc1ccc(CCn2c(N)c(C(=O)NCc3ccco3)c3nc4ccccc4nc32)cc1 | -15% | -15%
CC(C)C(C)NC(=O)CN1C(=O)NC2(CCCCCC2)C1=O (centres undefined) | 3% | i
CCCNC(=O)C1(C)CCCN(Cc2ccc3ccccc3c2)C1 (centres undefined) | 0% | 27%
Cc1cc2nc(-c3ccc(SCc4ccccc4C#N)nc3)[nH]c2cc1C | -20% | -14%
COc1ccccc1NC(=O)C1=C(C)NC(=O)NC1c1ccc(C)cc1 (centres undefined) | -8% | -16%
CCCNC(=O)c1c(N)n(-c2ccc(S(N)(=O)=O)cc2)c2nc3ccccc3nc12 | -13% | i
Cn1nc(C(=O)NNC(=O)COc2ccccc2)c2ccccc2c1=O | -14% | -11%
O=C(C1CC1)N1CCN=C1SCc1cccc(C(F)(F)F)c1 | -29% | -14%
COc1ccc(CCNC(=O)CSc2ccc(-c3cccs3)nn2)cc1 | -7% | -3%
CC(=O)Oc1ccc(S(=O)(=O)c2ccc(OC(C)=O)cc2)cc1 | -4% | i
Cc1nc(-c2cn[nH]c2)c2cc(C)oc2n1 | -16% | -6%
Cc1cccc(NS(=O)(=O)c2ccc(C(=O)NCCCN3CCOCC3)cc2)c1C | -15% | -3%
Cc1ccc2nc(SCC(=O)N3CCCC3)nc(=O)n2c1 | -1% | -4%
CCOC(=O)C(C(=O)OCC)C1CCS(=O)(=O)C1 (centres undefined) | -7% | -15%
O=C(Nc1cccc(Cl)c1)NC1CC2CCC(C1)N2Cc1cccs1 (centres undefined) | -20% | -12%
CCCCN(C)CCCNC(=O)Cn1ncc2c3ccccc3n(Cc3cccc(Cl)c3)c2c1=O | -11% | -3%
CC1CC(C)(C)CC2(C1)NC(=O)N(CC(=O)NCC(c1ccco1)N1CCCCC1)C2=O (centres undefined) | 0% | 1%
COC(=O)[C@H](CCSC)NC(=O)Cn1cc(C)c(=O)[nH]c1=O | -3% | i
CSCCC(C(=O)Nc1c(C)cccc1C)n1c(COc2ccc(C)cc2)nc2ccccc21 (centres undefined) | ? | -27%
Cc1ccccc1C(=O)Nc1ccnn1C1CCN(Cc2cnn(C(C)C)c2)CC1 | -10% | i
CC1=C(C#N)C(=O)NC(=O)/C1=C/c1ccc(-c2ccc(S(N)(=O)=O)cc2)o1 | 12% | -10%
C1=C(c2cc3ccccc3cn2)CCCC1 | -14% | i
COc1ccc2cc3cc(C(=O)Nc4ccc5c(c4)OCCO5)oc3nc2c1 | -29% | -14%
O=C(CNC(=O)c1cccs1)OCc1ccc(Br)cc1 | -3% | i
Nc1ccc2c(c1)C(=O)N(CCCC(=O)O)C2=O | 4% | -6%
CCOc1cc(C)c(C(C)C)cc1S(=O)(=O)N1CCOCC1 | -18% | nt
O=C(NCc1ccccc1)C(c1ccc(F)cc1)N(C(=O)c1csnn1)c1ccccc1 (centres undefined) | -13% | -19%
Cc1c(C(=O)NC(C)C)c(-c2ccccc2)nn1-c1ccccc1 | -18% | i
CN(C)CCNC(=O)c1ccc2c(c1)N(Cc1ccc(F)cc1)CCS2 | -8% | -21%

Next records follow:
molecule | Vaccinia Venus | VACV mCherry inh
COc1ccc(NC(=S)NNC(=O)c2nnn(-c3ccccc3)c2C)cc1 | -10% | -3%
CN1CCN(CCCNC(=O)C2CCN(c3nnc(-n4cccc4)s3)CC2)CC1 | -8% | i
Cc1cc(C=O)c(O)cc1O | -16% | -9%
CCCCCCCN(c1ccccc1)C1C[C@H]2CCCC(=O)N3CC[C@@H](C1)[C@@H]23 (some centres undefined) | -9% | i
CCOC(=O)N1CCC(NC(=O)CC2C(=O)NCCN2Cc2ccccc2)CC1 (centres undefined) | -4% | -14%
CCOC(=O)Cn1cc(/C=N/N2C(=O)C3C4C=CC(C4)C3C2=O)c2ccccc21 (centres undefined) | -20% | -9%
CCc1noc(C)c1C(=O)Nc1ccc(S(=O)(=O)N2CCCC(C)C2)cc1 (centres undefined) | ? | -29%
Cc1cnc(CNc2ncncc2-c2ccccc2C#N)cn1 | 9% | 15%

Four compounds from above, ordered by length of the SMILES, falling:
molecule | Vaccinia Venus | VACV mCherry inh
CCOC(=O)Cn1cc(/C=N/N2C(=O)C3C4C=CC(C4)C3C2=O)c2ccccc21 (centres undefined) | -20% | -9%
CCc1noc(C)c1C(=O)Nc1ccc(S(=O)(=O)N2CCCC(C)C2)cc1 (centres undefined) | ? | -29%
CCOC(=O)N1CCC(NC(=O)CC2C(=O)NCCN2Cc2ccccc2)CC1 (centres undefined) | -4% | -14%
Cc1cnc(CNc2ncncc2-c2ccccc2C#N)cn1 | 9% | 15%

Other structures follow.
molecule | Vaccinia Venus | VACV mCherry inh
CC12CCC(=O)N1C(C(=O)OCc1c(Cl)cccc1Cl)CS2 (centres undefined) | -1% | i
CN(Cc1ccccc1)C(=O)c1nc2ccccn2c1CNCCn1cccn1 | 1% | i
CC(=O)c1ccc2c(c1)C1C=CCC1C(c1ccncc1)N2 (centres undefined) | -6% | -22%
Cc1sc(NC(=O)c2ccccc2)c(C(=O)c2ccccc2)c1C | -7% | -7%
CCN(CC)S(=O)(=O)c1cc(NC(=O)CN2C(=O)NC3(CCCc4ccccc43)C2=O)ccc1C (centres undefined) | -14% | i
O=C(CN1C(=O)S/C(=C\c2ccccc2F)C1=O)NC1CCS(=O)(=O)C1 (centres undefined) | -15% | -18%
CSc1ccccc1C(=O)NCCS(=O)(=O)N1CCN(c2ccc(F)cc2)CC1 | -21% | ?

Source: PubChem (National Center for Advancing Translational Sciences (NCATS))
